Screening data deposited in PubChem by National Center for Advancing Translational Sciences (NCATS).
TRPV1 potentiator: human TRPV1 potentiation | 320,000 tested, 0.02% active | TRPV1-expressing cells, Fluo-8 calcium influx, capsaicin EC20 potentiation; host cell line not named in the record; control for the full effect not named in the record | Q8NER1 | AID 540277 | potentiation, % at 8.33 µM; active means potentiation above 80%; inconclusive means 30% to 80%; inactive means below 30%; note: 0% is about no effect
Target sequence (Q8NER1 whole entry, looked up): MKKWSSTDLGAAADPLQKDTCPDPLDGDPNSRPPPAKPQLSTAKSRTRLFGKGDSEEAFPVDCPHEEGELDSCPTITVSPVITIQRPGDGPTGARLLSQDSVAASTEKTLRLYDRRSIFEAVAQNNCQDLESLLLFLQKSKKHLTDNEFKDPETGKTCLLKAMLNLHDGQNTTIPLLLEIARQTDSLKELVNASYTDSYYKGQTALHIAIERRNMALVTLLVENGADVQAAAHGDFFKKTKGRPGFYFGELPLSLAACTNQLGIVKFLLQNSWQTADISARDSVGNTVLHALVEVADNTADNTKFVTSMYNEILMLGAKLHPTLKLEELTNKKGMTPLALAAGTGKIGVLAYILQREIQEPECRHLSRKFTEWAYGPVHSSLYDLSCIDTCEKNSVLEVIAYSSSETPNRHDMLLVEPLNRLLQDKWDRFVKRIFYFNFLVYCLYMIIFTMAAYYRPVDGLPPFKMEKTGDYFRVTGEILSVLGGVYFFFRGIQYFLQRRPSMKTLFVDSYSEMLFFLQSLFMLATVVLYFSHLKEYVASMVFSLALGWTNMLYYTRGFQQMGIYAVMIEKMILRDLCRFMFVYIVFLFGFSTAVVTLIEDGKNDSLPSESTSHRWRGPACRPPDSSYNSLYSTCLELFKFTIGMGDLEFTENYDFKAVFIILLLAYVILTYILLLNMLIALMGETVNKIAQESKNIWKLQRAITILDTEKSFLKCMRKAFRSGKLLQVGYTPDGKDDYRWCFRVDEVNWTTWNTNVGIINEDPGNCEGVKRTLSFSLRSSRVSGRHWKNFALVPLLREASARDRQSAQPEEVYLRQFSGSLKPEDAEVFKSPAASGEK
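TRPV1-expressing cells were cultured overnight at 35.5C and loaded with Fluo-8 calcium dye for 40 to 90 min at room temperature. After a 10 s baseline, compound was added and calcium influx was read kinetically for 3 min (ex 480/em 520 nm).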
TRPML1 inh: human mucolipin-1 channel inhibition; Q9GZU1; TRPML1-inducible cells, Ca2+ dye fluorescence, FDSS; stronger effect = lower value; inhibition of EC80 agonist-evoked calcium signal; activity change, negative = inhibition, % (concentration not given with the values); 390,000 tested, 0.02% active; AID 624415; in the data active means activity change below about -50%; inconclusive means about -30% to -50%; inactive means above about -30%;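 note: stimulus is agonist 54-4 at its EC80 concentration; % is set by controls: 0 for no effect and ±100 for the full control effect; compound concentration not given in the record; the text of the record puts the active cut at -80%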
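TRPML1-DL cells, Tet-induced overnight (~16 h, 37 °C) at 1,500 cells/well, were loaded with Ca8 no-wash dye plus quencher for 45-90 min at room temperature. Compounds were pinned during FDSS kinetic reading; agonist 54-4 at EC80 (4 uM final) then added.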
D2 PAM: human D2 receptor positive allosteric modulation. potentiation, % (no concentration beside the values). 360,000 tested, 0.23% active. P14416. DiscoveRx D2 beta-arrestin cells, luminescence, 90 min; 100% = 57 uM dopamine signal; active = potentiation of 50% or more; inconclusive = 30% to 50%; inactive = 30% or less;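 note: compound concentration not given in the record; tested on top of an EC20 dose of dopamine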
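D2 cells co-treated with compound plus 50 nM dopamine (EC20) for 90 min at 37 deg C to detect potentiation. Beta-arrestin recruitment was read as enzyme-fragment luminescence after 1 h at ambient temperature. Full response was set by 57 uM dopamine.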
CtBP-E1A inh: blocks the CtBP interaction with E1A | AlphaScreen GST-E1A/His-CtBP binding, 1536-well; stronger effect = lower value; control for the full effect not named in the record | activity change, % (no concentration beside the values) | 340,000 tested, 0.49% active | AID 651724; in the data active means activity change below about -65%; inconclusive means about -30% to -65%; inactive means above about -30%; note: % is set by controls: 0 for no effect and ±100 for the full control effect; compound concentration not given in the record
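In 5 uL wells, 23 nL compound meets equimolar GST-E1A and His-CtBP (5X stock 125 nM each) for 2 h, 37 °C. Beads (5X, 50 ug/mL) then 1 h, 37 °C, dark.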
Six1-Eya2 inh: blocks human Six1 binding to Eya2; Q15475+O00167; AlphaScreen GST-Six1/His-Eya2 binding, biochemical; stronger effect = lower value; control for the full effect not named in the record; activity change, % (test concentration not listed); 360,000 tested, 0.56% active; AID 651725; in the data active = activity change below about -65%; inconclusive = about -30% to -65%; inactive = above about -30%; note: % is set by controls: 0 for no effect and ±100 for the full control effect; compound concentration not given in the record
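GST-Six1 + His-Eya2 (5X stock: 250/500 nM); Tris pH 8.0, 300 mM NaCl, 0.05% BSA, 0.02% Tween 20; GSH donor/Ni acceptor beads; 1 h 37 °C dark; AlphaScreen readout.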
TRPML1 agonist: human mucolipin-1 channel agonism; TRPML1-expressing cells, Ca2+ dye fluorescence, FDSS; host cell line not named in the record; reference of the full effect not given here; activation, % (no concentration beside the values); 410,000 tested, 0.12% active; in the data active = activation above about 50%; inconclusive = about 30% to 50%; inactive = below about 30%; note: 0% is about no effect; the text of the record puts the active cut at 80%
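Tet-induced TRPML1-DL cells, 1,500 per well, cultured overnight, were loaded with a no-wash Ca2+ dye for 45–90 min. Calcium fluorescence was recorded on the FDSS for 110 s after compound addition, before the EC80 agonist (4 uM 54-4) was added.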
* hit, by the source's call; ? = inconclusive; · = not tested or not shown; & = joins results of further samples.

Preview, 4 compounds:
SMILES	TRPV1 potentiator	TRPML1 inh	D2 PAM	CtBP-E1A inh	Six1-Eya2 inh	TRPML1 agonist
CCCCCC[C@@H]([C@@H](C)O)n1cnc2c(N)ncnc21	·	33	-4	-5	5	0.9
O=C(O)C1CCCCC1C(=O)Nc1ccc2c(c1)OCO2 (stereo not drawn)	-6	7	5	-2	9	0.5
CC(=O)Nc1cccc(C(=O)O)n1	4	22	-4	-15	?	-0.5
O=C(Nc1ccccc1)c1ccccc1Br	·	?	-1	25	22	0.1

This part in full (from the top)
SMILES	TRPV1 potentiator	TRPML1 inh	D2 PAM	CtBP-E1A inh	Six1-Eya2 inh	TRPML1 agonist
CCCCCC[C@@H]([C@@H](C)O)n1cnc2c(N)ncnc21	·	33	-4	-5	5	0.9
O=C(O)C1CCCCC1C(=O)Nc1ccc2c(c1)OCO2 (stereo not drawn)	-6	7	5	-2	9	0.5
CC(=O)Nc1cccc(C(=O)O)n1	4	22	-4	-15	?	-0.5
O=C(Nc1ccccc1)c1ccccc1Br	·	?	-1	25	22	0.1
CC(C)[C@H](NC(=O)N1CCn2c1nc1ccccc12)C(=O)NCCc1ccccc1	-12	-2	-6	5	2	-0.5
NC(=O)N/N=C/c1sc(=O)n(-c2ccccc2)c1Cl	26	7	-4	8	3	0.7
CCOC(=O)c1ccccc1NC(=O)N1CCn2c(C)ccc2C1CC (stereo not drawn)	-5	-4	-21	-6	-9	2.8
Cc1ccc(NC(=O)Cn2nnc(C(=O)NCc3ccc(Cl)cc3)c2N)cc1F	7	0	-15	1	1	-0.2
CC1CCCC(C)N1/N=C/c1ccc([N+](=O)[O-])cc1 (stereo not drawn)	0	-1	-4	?	?	0.1
O=C(COc1ccc2cc(-c3ccccc3)c(=O)oc2c1)NCC1CCC(C(=O)O)CC1 (stereo not drawn)	11	·	-17	-2	-10	·
Cc1cc(C)cc(OCC(=O)OCC(=O)c2c(N)n(C)c(=O)n(C)c2=O)c1	2	-2	10	8	-4	0.5
O=C(CCCn1c(=O)[nH]c2ccccc2c1=O)NC1CCCCCC1	-1	-6	-2	7	9	2.2
NC(=O)Nc1ccccc1C(=O)Nc1ccc2ccccc2c1	11	·	-8	·	13	·
O=C(CSc1nnc(-c2ccccc2)n1-c1ccc(Cl)cc1)N/N=C/c1ccccc1C(=O)O	-2	·	7	-5	-4	·
Cc1cc(C)n2nc(C(=O)N/N=C/c3cn(C)nc3C)nc2n1	5	-14	-13	·	-5	0.1
O=C(COc1ncnc2ccc(Br)cc12)NCc1ccc2c(c1)OCO2	16	-7	-2	0	4	-0.9
CC(=Nc1ccccc1C)C1=C(O)CSC1=O	-3	-13	-11	-6	-5	-0.3
O=C1NC(=O)c2c(NC(=O)C3CCCO3)cccc21 (stereo not drawn)	15	10	-9	7	3	0.0
COc1nc(NCCN2CCOCC2)nc(Nc2ccccc2)n1	2	-3	6	-4	-2	-0.7
COc1ccc(NC(=O)CSc2nnc(Cn3c(=O)sc4ccccc43)n2C)cc1	27	-18	1	7	-6	1.2
N#Cc1c(N)nc(SCc2ccccc2)c(C#N)c1-c1ccco1	9	9	0	11	-8	2.3
CCOC(=O)N/N=C\c1ccc(OC/C=C/c2ccccc2)c(OC)c1	7	-9	-17	5	-6	0.2
CCOC(=O)c1ccc(N2C(=O)C(CC(=O)NC)N(CCc3ccc(OC)c(OC)c3)C2=S)cc1 (stereo not drawn)	-8	2	0	1	2	-0.5
CC(=O)c1cc(-c2ccccc2)n(CC(=O)NCc2cccs2)c1C	-3	2	-7	-1	6	-0.2
Cc1ccccc1CN1[C@@H](Cc2ccccc2)COCCS1(=O)=O	·	8	0	3	1	0.1
Going on with the list:
SMILES	TRPV1 potentiator	TRPML1 inh	D2 PAM	CtBP-E1A inh	Six1-Eya2 inh	TRPML1 agonist
C[C@H](NC(=O)c1nc[nH]c1C(=O)NCC(=O)OC(C)(C)C)C(=O)OCc1ccccc1	-3	-23	5	-1	-5	1.8
CCN(C1CCS(=O)(=O)C1)S(=O)(=O)c1ccc2ccccc2c1 (stereo not drawn)	-13	5	-3	-3	-1	-0.3
COC(=O)C1C(=O)c2c(C)noc2CC1(C)C (stereo not drawn)	10	0	-10	7	0	-0.2
Cc1cc(O)c(-c2cc(C(=O)Nc3sc4c(c3C(=O)NCc3ccco3)CCC4)[nH]n2)cc1C	6	·	-5	6	4	·
CN(C)c1nc(N(C)C)nc(N(C)C)n1	-6	17	-6	-20	10	0.1
O=C(c1cccc(NS(=O)(=O)c2ccccc2)c1)N1CCCC1	15	0	-7	-15	1	1.5
CCC(Sc1nc2ncnc(N)c2[nH]1)C(=O)O (stereo not drawn)	6	-24	-8	7	4	-0.5
CC(C)CN(C(=O)c1ccc(=O)n(C)n1)c1c(N)n(Cc2ccccc2)c(=O)[nH]c1=O	-1	-9	-4	-1	4	0.3
CCCCCOc1ccc(Cn2ccnc2)cc1[N+](=O)[O-]	10	41	-14	·	-18	0.9
COc1ccc(NC(=S)NCC2CCCO2)c(C)c1 (stereo not drawn)	5	-6	-4	-12	4	0.6
O=C1COCCOCCOCCOCC(=O)NCCN1	3	?	-5	6	-1	0.3
COc1ccc(N2CCN(C(=O)CSc3ccccc3)CC2)cc1	-12	5	-9	-7	-12	0.3
Cc1cccc(C(c2c(C)nn(-c3ccccc3)c2N)c2c(C)nn(-c3ccccc3)c2N)c1	1	12	-13	-12	?	4.5
CC(=O)NNC(=O)CCC(=O)Nc1ccccc1	21	4	-3	-8	0	-0.1
Cc1c(C(=O)O)sc2nc(C)n(C)c(=O)c12	·	11	-7	9	1	-0.1
O=C(CN1CCCC1)Nc1ccc(NC(=O)Nc2ccccc2)cc1	3	-6	-8	4	2	-0.1
CCCN(CCC)CC(O)Cn1c2ccccc2c2ccccc21 (stereo not drawn)	1	-4	-5	3	-3	-0.5
CS(=O)(=O)N1CCCC(C(=O)Nc2cccc(F)c2)C1 (stereo not drawn)	6	7	-6	-2	-3	1.0
COCCNC(=O)C(=O)NCC1OCCN1S(=O)(=O)c1ccc2c(c1)OCCO2 (stereo not drawn)	14	-4	-5	4	2	-0.2
Cc1ccc(S(=O)(=O)N2CCCOC2CNC(=O)C(=O)NCc2ccc3c(c2)OCO3)cc1 (stereo not drawn)	13	-5	6	6	8	-0.1
O=C1C(Cl)=C(Nc2cccc(O)c2)C(=O)N1Cc1ccccc1	-9	-3	-12	-2	-1	-0.1
CCCCNC(=O)N(O)C1N(/N=C/c2ccc(N(C)C)cc2)C(=S)SC1(C)C (stereo not drawn)	3	2	0	-5	-9	1.6
Cc1cc(C)nc(SCNC(=O)c2ccccc2)n1	?	4	-5	13	8	-0.3
CCOc1ccc(N(C)C(=O)CCc2nnc3ccc(N4CCOCC4)nn23)cc1	-7	-9	-9	-19	-1	-0.3
Cc1cc2nc(-c3ccccc3)c(Cc3cccc(F)c3)n2c(C)c1Br	·	·	-5	-4	-13	-0.6
Next entries.
SMILES	TRPV1 potentiator	TRPML1 inh	D2 PAM	CtBP-E1A inh	Six1-Eya2 inh	TRPML1 agonist
c1ccc(CN2CCC(Nc3ncnc4sccc34)CC2)cc1	-3	3	-13	-14	-1	-0.5
COc1ccccc1CNC(=O)c1csc(Cc2ccc(Cl)cc2)n1	·	21	5	12	31	3.4
CCN(CC)c1ccc(C(NC(C)=O)NC(C)=O)cc1	18	5	-3	5	7	-0.5
c1ccc(-c2csc(NNC3=NCCCCC3)n2)cc1	0	20	-31	0	9	-0.7
COc1ccc(NC(=O)c2ccc(-n3c(C)ccc3C)cc2)c(OC)c1	6	14	4	0	-2	1.4
O=C(NNc1ccc(F)cc1)c1c(F)cccc1Cl	-7	-9	-5	4	5	-0.2
O=C(Nc1cccc(Cl)c1)Nc1csc([N+](=O)[O-])c1	-15	14	-7	-1	-5	-0.1
CCCc1ccccc1OCCNC(=O)c1cc(=O)n(C)c(=O)n1C	4	13	0	0	-1	-0.1
CCN1CCN(S(=O)(=O)c2ccc(Cl)c(C(=O)N(C)Cc3ccco3)c2)CC1	-6	12	13	-6	-5	-1.2
CN(CC(=O)Nc1cccc(F)c1)C(=O)c1ccc2c(c1)OCCO2	11	6	-2	-1	-3	-0.5
Cc1ccnc(NC(=O)CCC(=O)N(CC(=O)NC(C)(C)C)c2ccc(F)c(Cl)c2)c1	3	22	1	-8	-11	-0.5
O=C(COc1ccc2c(-c3ccccc3)cc(=O)oc2c1)N[C@@H](Cc1c[nH]c2ccc(O)cc12)C(=O)O	4	·	-16	-19	-17	·
C=CCNC(=O)O/N=C/c1csc([N+](=O)[O-])c1	·	15	8	-9	1	-0.2
CC(C)(C)c1ccc(C(O)CCCN2CCC(C(O)(c3ccccc3)c3ccccc3)CC2)cc1 (stereo not drawn)	-13	9	-27	2	-8	0.8
COc1ccc(-c2sc3ccccc3c2-c2ccc(OC)cc2F)cc1	·	·	·	7	15	0.0
CCCSc1nc(C)c(-c2csc(C(C#N)=C3CCCC3)n2)cc1C#N	25	-1	-15	2	2	5.1
Cc1ccc(-c2ccc(=O)n(Cc3ccc(F)cc3)n2)cc1	4	-27&42	-5	27	-2	3.6&3.1
COc1ccc(NC(=O)c2cc3sccc3n2Cc2ccc(F)cc2)cc1OC	-21	6	-7	-7	-26	0.8
Cc1cc([N+](=O)[O-])nn1CC(=O)NCCCN1CCOCC1	6	42	-4	5	-1	-0.7
O=C(COc1ccccc1)Nc1ccc(N2CCN(C(=O)c3ccco3)CC2)cc1	10	-7	4	-11	8	1.9
COc1ccc(NC2CCCN(Cc3cccc4cnccc34)C2)cc1 (stereo not drawn)	?	-10	-7	·	?	-1.3
CN(CC(=O)NCc1ccccn1)S(=O)(=O)c1ccc2ccccc2c1	?	5	4	20	5	0.6
COc1ccc(-n2c(Cn3nnc4ccccc43)n[nH]c2=S)cc1	14	48	5	18	4	0.2
O=C(COC(=O)COc1ccccc1)Nc1ccc(OC(F)(F)F)cc1	6	88	3	14	-1	0.3
CCC(C)(C)c1ccc(OCCN2C(=O)NC(C)(C)C2=O)cc1	4	-9	-4	2	-3	0.4
COc1ccc(S(=O)(=O)N2CCN(c3nn(C)c(=O)n(C)c3=O)CC2)cc1	-2	10	-8	9	-2	-0.4
COCCNc1nc2c(-c3cccc(C(F)(F)F)c3)nnn2c2ccccc12	7	-16	-6	-3	-1	-1.1
COc1ccc(C(=O)Nc2ccc(N3CCOCC3)cc2)cc1OC	17	14	11	-6	3	0.2
O=C(NC(=S)N1CCCc2ccccc21)c1ccc([N+](=O)[O-])cc1	?	-1	-21	10	?	-0.1

Limited to CtBP-E1A inh, TRPML1 agonist and TRPV1 potentiator (4 entries from above):
| SMILES | CtBP-E1A inh | TRPML1 agonist | TRPV1 potentiator |
| --- | --- | --- | --- |
| O=C(CN1CCCC1)Nc1ccc(NC(=O)Nc2ccccc2)cc1 | 4 | -0.1 | 3 |
| O=C1COCCOCCOCCOCC(=O)NCCN1 | 6 | 0.3 | 3 |
| Cc1cc(C)cc(OCC(=O)OCC(=O)c2c(N)n(C)c(=O)n(C)c2=O)c1 | 8 | 0.5 | 2 |
| O=C(COc1ccc2cc(-c3ccccc3)c(=O)oc2c1)NCC1CCC(C(=O)O)CC1 (stereo not drawn) | -2 | · | 11 |
